ERa coact pot – ER-alpha (human) coactivator binding potentiation; TR-FRET ERalpha-LBD/SRC-Cy5 coactivator binding, 2 h; 100 = basal binding, no effect; P03372; coactivator binding (% of control), % at 25.6 µM; 1.3% of 86,000 active; AID 639; in the data active = activity above about 200%;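 also: binding measured in presence of low estradiol as agonist stimulus; 0% = peptide alone without receptor and 100% = receptor with peptide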
ERa SRC1 inh – ER-alpha (human) coactivator binding inhibition | inhibition, % at 25.6 µM | 1.7% of 86,000 active | TR-FRET ER-alpha LBD / SRC-1 peptide, estradiol-bound; in the data active = inhibition above about 50%;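 also: 0% = receptor plus peptide control and 100% = peptide only without receptor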
Mac1 fbg enh – increases human CD11b/CD18 adhesion to fibrinogen; P05107+P11215; K562 CD11b/CD18 adhesion to fibrinogen, ATPlite luminescence; activation, % at 10 µM; 0.07% of 93,000 active; AID 1499;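 active = 10 µM primary screen giving 50% or more activity, confirmed by 40% or more on retest at that dose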; also: strong numbers were not always called active
Target sequence (P05107 whole entry, looked up, other chains not shown): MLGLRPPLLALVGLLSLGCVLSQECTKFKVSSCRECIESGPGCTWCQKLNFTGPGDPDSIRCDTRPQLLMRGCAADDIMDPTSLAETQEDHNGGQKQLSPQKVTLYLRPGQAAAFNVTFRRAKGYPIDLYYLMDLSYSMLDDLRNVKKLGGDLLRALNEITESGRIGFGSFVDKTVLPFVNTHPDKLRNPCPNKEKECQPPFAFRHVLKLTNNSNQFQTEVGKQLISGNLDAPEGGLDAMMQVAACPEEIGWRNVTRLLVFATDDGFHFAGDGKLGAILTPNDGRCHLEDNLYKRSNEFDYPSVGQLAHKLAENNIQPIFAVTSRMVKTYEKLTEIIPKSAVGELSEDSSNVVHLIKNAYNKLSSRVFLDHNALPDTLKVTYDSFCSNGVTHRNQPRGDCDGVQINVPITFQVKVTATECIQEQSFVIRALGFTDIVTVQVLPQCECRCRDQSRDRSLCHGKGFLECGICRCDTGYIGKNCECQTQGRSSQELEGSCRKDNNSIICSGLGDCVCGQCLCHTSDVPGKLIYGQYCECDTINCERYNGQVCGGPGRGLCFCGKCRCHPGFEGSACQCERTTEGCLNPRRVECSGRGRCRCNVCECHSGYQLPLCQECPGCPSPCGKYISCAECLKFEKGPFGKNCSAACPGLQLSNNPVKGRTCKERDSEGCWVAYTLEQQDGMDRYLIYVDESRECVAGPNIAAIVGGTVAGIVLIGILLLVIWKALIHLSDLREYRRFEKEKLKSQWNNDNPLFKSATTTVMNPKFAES
CD11b adhes inh – inhibitors of human CD11b/CD18 binding to fibrinogen | inhibition, % at 10 µM | 0.54% of 93,000 active | K562 CD11b/CD18 adhesion to fibrinogen, ATPlite luminescence; Mn2+ added to activate the integrin | AID 1497 | P05107+P11215;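 active = primary inhibition of 50% or more at 10 µM, then 40% or more on retest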; also: some results filed as inactive read as strong as hits
Fibroblast inh – blocks proliferation of human lung fibroblasts | LL 47 human lung fibroblast viability, ATP luminescence; active compounds read low | viability, % at 10 µM | 1.1% of 85,000 active | AID 719;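 active = viability at or below 50% in the single dose screen; inactive = viability above 50%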;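 also: compound exposure lasted 72 h before the ATP readout; 100% = median luminescence of untreated cell-only wells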
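Test system: LL 47 human lung fibroblasts / Incubation: 72 h compound exposure at 37 °C after overnight plating / Technique: luminescent ATP detection, CellTiter-Glo / Compound dosing: 0.1% DMSO in all compound wells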
HUVEC prolif 384 – inhibitors of human endothelial cell proliferation; AID 648; viability, % at 10 µM (by protocol); 1.1% of 86,000 active; HUVEC proliferation, CellTiter-Glo luminescence, 72 h; active compounds read low;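 active = viability at or below 30%; inactive = viability above 30%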;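 also: 100% = median luminescence of DMSO-only cell control wells on each plate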
Numbers without * were called inactive; i = inactive; x = not tested or not shown; [ ] = dose if it differs, or a comment.

SMILES	ERa coact pot	ERa SRC1 inh	Mac1 fbg enh	CD11b adhes inh	Fibroblast inh	HUVEC prolif 384
Cc1ccc(C(=O)N2CCN(c3ncccn3)CC2)o1	70	7	-2	-4	105	95
Cc1cc(C)c(C#N)c(SCC(=O)C(C)(C)C)n1	99	5	x	x	93	90
CC1CCc2c(C(=O)NCCN3CCOCC3)csc2C1 (stereo not drawn)	111[fluorescence artefact?]	-100[fluorescence artefact?]	x	x	109	89
COc1ccc(N2CCN(c3oc(Cc4ccccc4)nc3C#N)CC2)cc1	96	-5	x	x	96	82
CCCS(=O)(=O)N1CCC(C(=O)NCCCOC)CC1	103	-7	-3	2	102	102
CC(C)NC(=O)c1n[nH]c(=O)c2ccccc12	134	-1	x	x	93	96
O=C(CN1C(=O)C2C3C=CC(C3)C2C1=O)Nc1cccc2c1CCCC2 (stereo not drawn)	134	-5	x	x	97	98
CC(Sc1nc2ccccc2s1)C(=O)N1CCOCC1 (stereo not drawn)	90	3	-2	14	103	92
CC(=O)N(c1ccc2oc(=O)sc2c1)S(=O)(=O)c1cccs1	77	-39	1	7	97	81
CC1(C)OC(=O)C(=CNn2cnc3ccccc3c2=O)C(=O)O1	145	4	x	x	99	101
CCCc1nnc(SCC(=O)N2CCCCC2C)n1CC1CCCO1 (stereo not drawn)	115[fluorescence artefact?]	-4	x	x	96	107
Cc1c(CCOC(=O)C2C3CC4CC(C3)CC2C4)sc[n+]1CC(=O)c1ccc(Br)cc1 (stereo not drawn)	78	15	18	-6	73	2.6*
CC1CCCN(C(C(=O)Nc2ccc3c(c2)OCCO3)c2ccccc2)C1 (stereo not drawn)	106	2[fluorescence artefact?]	0	13	107	109
CC1CCC(=C(C#N)C(=O)Nc2cccc(Cl)c2)CC1 (stereo not drawn)	105	-2	x	x	95	95
CCOC(=O)C1CCN(C(=O)c2cccnc2Cl)CC1	103	-5	4	8	111	100

Entries listed so far with a Cl atom (two):
SMILES	ERa coact pot	ERa SRC1 inh	Mac1 fbg enh	CD11b adhes inh	Fibroblast inh	HUVEC prolif 384
CC1CCC(=C(C#N)C(=O)Nc2cccc(Cl)c2)CC1 (stereo not drawn)	105	-2	x	x	95	95
CCOC(=O)C1CCN(C(=O)c2cccnc2Cl)CC1	103	-5	4	8	111	100

The list continues:
SMILES	ERa coact pot	ERa SRC1 inh	Mac1 fbg enh	CD11b adhes inh	Fibroblast inh	HUVEC prolif 384
CC(C)CC(=O)Nc1ccccc1-c1nnn(CC(=O)N2CCc3ccccc3C2)n1	91	-1	x	x	103	96
COc1ccc(CCNc2ccncn2)cc1	106	4	x	x	103	110
CCN(CC)CCN1C(=O)Cn2c(C)c(C)c3cccc1c32	112	-4[fluorescence artefact?]	-2	-23	94	93
O=C(Cc1ccc(Cl)cc1)N1CCN(C(=O)c2ccco2)CC1	101	-5	x	x	93	100
CCN(CC(=O)NC1CCS(=O)(=O)C1)c1ccc(S(C)(=O)=O)cc1[N+](=O)[O-] (stereo not drawn)	93[fluorescence artefact?]	-2	2	-15	107	95
CC1CN/C(=C\C(=O)c2ccccc2)C(=O)N1 (stereo not drawn)	111	-6	-4	-10	96	106
Cc1cc(C)n(CC(=O)N/N=C/c2ccc(C)o2)n1	96	1	x	x	108	104
Cn1cnnc1SCC(=O)N1N=C2/C(=C/c3ccco3)CCCC2C1c1ccco1 (stereo not drawn)	78	-7	-4	-1	93	97
Cc1[nH]nc2c1C(c1ccccc1)C1=C(CC(C)(C)CC1=O)N2 (stereo not drawn)	130	-7	i	i	100	127
O=C(C(Cc1ccccc1)N1C(=O)C2C3C=CC(C3)C2C1=O)N1CCCCCC1 (stereo not drawn)	104	-2[fluorescence artefact?]	-1	-1	97	104
CC1=C(C#N)C(NC(=O)C(C)(C)C)(C(F)(F)F)C(=O)N1 (stereo not drawn)	101	8	x	x	100	102
Cc1ccc(C(=O)c2oc3nc(C)cc(C)c3c2N)cc1	115	12	x	x	88	94
CCCCOP(=O)(c1ccc(N(C)C)cc1)C(O)c1cccnc1 (stereo not drawn)	106	0	x	x	104	91
CCOC(=O)c1ccc(NC(=O)CSc2nc3c(c(=O)n2CC)SC(C)C3)cc1 (stereo not drawn)	106	-4	-5	12	101	97
CC(C)Cc1nc(N2CCN(C(=O)c3ccccc3)CC2)c(C#N)c2c1CCC2	88	7	x	x	92	100
CCCOc1ccc2oc(=O)c3c(c2c1)CCCN3C(=O)CN1CCCC(C(=O)OCC)C1 (stereo not drawn)	123	1	x	x	96	91
CN1C(=O)CC(NNC(=O)c2ccccc2)C1=O (stereo not drawn)	89	9	1	13	100	92
COc1ccc(N2C(=O)CCC(C(=O)N3CCC(C(N)=O)CC3)C2c2ccc(F)cc2)cc1 (stereo not drawn)	93	23	10	2	110	99
Cc1oc(-c2ccccc2)cc1C(=O)Nc1ccc2ccccc2c1	101	-5	-1	2	109	67
CCCOc1ccc(N2CC(C(=O)NC(C)C)CC2=O)cc1 (stereo not drawn)	107[fluorescence artefact?]	1	0	9	101	96
CCCNC(=O)c1ccccc1NC(=O)COc1ccc(OC)cc1	106	-2	0	-6	102	105
COC(=O)c1cccc(-n2[nH]nnc2=S)c1	104	-6	x	x	102	80
CCOC(=O)Cn1nc(Cc2ccccc2)c2ccccc2c1=O	93	1	x	x	98	104
CCCCN(C(=O)c1c(C)[nH]c(C(=O)OCC)c1C)c1ccccc1	103	8	2	11	90	100
CCN(CC)S(=O)(=O)c1ccc2c(c1)nc(CCC(=O)Nc1cccc(C(F)(F)F)c1)n2CC	99[fluorescence artefact?]	-7	10	-4	91	70
Cn1c(CCN2CCCCC2)nc2cc(NS(=O)(=O)c3ccccc3)ccc21	117	-9	3	-8	92	107
O=C1COc2ccc(OCc3ccc(F)cc3)cc21	103[fluorescence artefact?]	18[fluorescence artefact?]	-1	2	95	101
COc1ccc(-c2c(C)nn(Cc3ccccc3)c2N)cc1	117	4	-1	-3	97	79
CC1(C)N=C(SCC(=O)Nc2ccccc2)C(c2ccc(Cl)cc2)=N1	93	0	-2	37	85	88
S=C1NCCOCCOCCOCCN1	99[fluorescence artefact?]	-1	-1	4	98	120
COc1ccc(C2CC(=O)c3cnc(NC(=O)c4cccc(OC)c4)nc3C2)cc1 (stereo not drawn)	117[fluorescence artefact?]	-6	-2	-8	100	89
O=C(O)c1c[nH]c(=S)n1-c1ccc(F)cc1	84	-4	0	-3	105	106
O=C(/C=N/O)Nc1ccccc1	91	0	x	x	101	101
O=C(O)c1c[nH]c2cc(C(F)(F)F)ccc2c1=O	108	2	x	x	95	99
CCN1CCCC1CNC(=O)c1cc(NC(C)=O)c(N(C)C)cc1OC (stereo not drawn)	111	-5	x	x	102	112
CN(C)S(=O)(=O)c1ccc(NC(=O)c2c(F)cccc2Cl)cc1	101	-4	x	x	101	104
Cc1c(NC(=O)C(C)OC(=O)[C@@H](NC(=O)c2ccccc2)C(C)C)c(=O)n(-c2ccccc2)n1C (stereo partly drawn)	114[fluorescence artefact?]	4	x	x	103	93
CCOC(=O)c1c(C)[nH]c(C(=O)C(C)Sc2ccc(Cl)cc2)c1C (stereo not drawn)	111	0[fluorescence artefact?]	x	x	96	111
COc1ccc(-c2c(C)n([O-])c3c([n+]2=O)CCCC3)cc1	92	-3	x	x	99	94
CSc1ccccc1NC(=O)c1cc(CC(C)C)on1	77	15	-1	-7	91	109
Cc1ccc(/C=C/C(=O)Nc2cc(C)on2)cc1	128	-6	x	x	84	74
CCCOc1ccc(-c2nc(C#N)c(NCCCn3ccnc3)o2)cc1	110	-17	1	10	90	28*
O=C(Cn1ncc2c1-c1ccccc1OC2)N1CCc2ccccc21	129	-5	-4	-2	99	95
C/C(O)=c1/ccc2cccc3nc(C)nc1c23	95[fluorescence artefact?]	-4[fluorescence artefact?]	5	6	99	85
c1ccc(-c2n[nH]c(-c3ccccc3)c2-c2nc3ccccc3[nH]2)cc1	73	1	x	x	101	80

For reference, 3 of the compounds above:
SMILES	ERa coact pot	ERa SRC1 inh	Mac1 fbg enh	CD11b adhes inh	Fibroblast inh	HUVEC prolif 384
CCOC(=O)c1c(C)[nH]c(C(=O)C(C)Sc2ccc(Cl)cc2)c1C (stereo not drawn)	111	0[fluorescence artefact?]	x	x	96	111
COc1ccc(-c2c(C)n([O-])c3c([n+]2=O)CCCC3)cc1	92	-3	x	x	99	94
CSc1ccccc1NC(=O)c1cc(CC(C)C)on1	77	15	-1	-7	91	109

Next section
SMILES	ERa coact pot	ERa SRC1 inh	Mac1 fbg enh	CD11b adhes inh	Fibroblast inh	HUVEC prolif 384
COc1ccc(-n2c(N)c(C(=O)NCc3ccco3)sc2=S)cc1	122	-6	x	x	95	93
Cc1ccc(C(=O)N(CN2CCCC2=O)c2ccccc2)cc1C	117	4[fluorescence artefact?]	x	x	96	86
O=C(NCc1ccco1)c1ccc(N2CCCC2=O)cc1	59[fluorescence artefact?]	27	-2	0	120	102
Cc1nnc(NCc2ccco2)s1	91	1	x	x	101	107
CC(=O)NC(O)C(=O)c1ccco1 (stereo not drawn)	78	-12	1	6	96	93
O=C(NCC1CCCO1)C1CC(=O)N(C2CCCCCC2)C1 (stereo not drawn)	114	4	x	x	95	105
Nc1ccc2oc(CCc3ccccc3)nc2c1	59[fluorescence artefact?]	0	-4	5	97	94
O=C(NC(Cc1c[nH]c2ccccc12)c1nnc2n1CCCCC2)c1ccc(Cl)cc1 (stereo not drawn)	107	8	x	x	98	97
N=c1c2c(-c3ccccc3)c(-c3ccccc3)n(Cc3ccccc3)c2ncn1CCCO	73	6	2	2	39*	1.9*
CC(NC(=O)OC1CCCCC1)N1C(=O)C2C3C=CC(C3)C2C1=O (stereo not drawn)	103	1	-1	-1	104	107
Cc1ccc(C)n1CCN1CCN(CC(=O)Nc2ccc(S(N)(=O)=O)cc2)CC1	122	5	0	-8	89	100
Cc1[nH]nc(-c2ccc(O)cc2O)c1-c1ccc(Cl)cc1	50	1	x	x	85	53
COc1ccc(N(C)S(=O)(=O)c2c(C)[nH]c(=O)[nH]c2=O)cc1	114	-10	x	x	100	96
COc1ccc(CN2CC(C(=O)NCCC3=CCCCC3)CC2=O)cc1 (stereo not drawn)	105	1[fluorescence artefact?]	x	x	99	96
COc1cccc(C2=NOC(C(=O)NC(C)C)C2)c1 (stereo not drawn)	104	-3	-4	-11	99	95

3 compounds picked at random from those above, as already listed:
SMILES	ERa coact pot	ERa SRC1 inh	Mac1 fbg enh	CD11b adhes inh	Fibroblast inh	HUVEC prolif 384
C/C(O)=c1/ccc2cccc3nc(C)nc1c23	95[fluorescence artefact?]	-4[fluorescence artefact?]	5	6	99	85
Cn1c(CCN2CCCCC2)nc2cc(NS(=O)(=O)c3ccccc3)ccc21	117	-9	3	-8	92	107
O=C(Cc1ccc(Cl)cc1)N1CCN(C(=O)c2ccco2)CC1	101	-5	x	x	93	100

Next part
SMILES	ERa coact pot	ERa SRC1 inh	Mac1 fbg enh	CD11b adhes inh	Fibroblast inh	HUVEC prolif 384
Cc1nnc(SCC(=O)NCc2cccs2)[nH]c1=O	108	-4	0	-12	92	95
CC(=O)NC1(NC(C)=O)CCN(C)C(c2ccccc2)C1C (stereo not drawn)	103	6	-4	-10	110	96
CC(=O)c1c(C)[nH]c(C(=O)N2CCc3ccccc3C2)c1C	70	6	x	x	97	90
CCc1ccc(NC(=O)CC2C(=O)Nc3c2c(=O)n(C)c(=O)n3C)cc1 (stereo not drawn)	106	-8	x	x	93	99
O=C(Nc1ccc2c(c1)OCO2)c1ccc[n+]([O-])c1	96	-7	4	-12	98	97
CCCCCn1c(SCc2ccncc2)nc2cc(C(=O)NCc3ccco3)ccc2c1=O	109[fluorescence artefact?]	21	x	x	93	86
COc1ccc(/C=C/c2ccncc2)cc1	96	-3	0	1	91	99
COc1ccc(/C=N/Nc2nonc2N)cc1	98	-9	1	1	97	62
O=C(NCCOc1nc(N2CCOCC2)nc(N2CCOCC2)n1)Nc1ccccc1	126	4	x	x	98	109
O=C(c1ccco1)N1CCN(C(=O)c2ccc(COc3ccc4c(c3)CCC4)o2)CC1	69	3	1	-7	91	70
COC(CNC(=O)c1ccc(N2CCCC2=O)cc1)OC	101[fluorescence artefact?]	-9	-1	3	93	84
COc1ccc2cc(CN(CCO)C(=O)c3ccc(Br)cc3)c(=O)[nH]c2c1	64[fluorescence artefact?]	-2	-4	32	114	81
Cc1cnc(C(=O)OCC(=O)Nc2ccc(Cl)cc2)cn1	110	-22	x	x	95	98
CC(C)OC(=O)C(CC(=O)O)N1CCOCC1 (stereo not drawn)	114	2	x	x	101	96
COc1ccccc1NC(=O)CSc1nccc(=O)[nH]1	116	-5	-3	-13	104	104
CC(=O)C1C(c2cccc(F)c2)NC(=O)NC1(O)C(F)(F)F (stereo not drawn)	113[fluorescence artefact?]	-3	x	x	97	97
CCCN(c1nc(C)cc(OC)n1)S(=O)(=O)c1ccccc1	125[fluorescence artefact?]	-6	10	26	98	91

Bioassay records: PubChem BioAssay, several laboratories

Some of the compounds tested. The share of hits here may be higher or lower than overall.
